T cruzi repl = blocks replication of Trypanosoma cruzi; AID 1885; 300,000 compounds, 1.4% hits; T. cruzi beta-gal in NIH3T3, luminescence, 90 h; inhibition, % (no concentration beside the values);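 active = mean inhibition across valid replicates above about 55%, limit read from the data; inconclusive = mean below that limit but half or more replicates reach it; inactive = mean below it, under half of replicates reach it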;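 note: signal also drops with host cell toxicity which is not excluded here; 0% = plate median of DMSO wells and 100% = zero luminescence signal; higher percent means less beta-gal luminescence so fewer parasites; stock transfer was 50 nL into about 50 µL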
Beta cell apopt = blocks beta cell apoptosis | 300,000 compounds, 0.8% hits | AID 435005 | protection from apoptosis, % (test concentration not listed) | INS-1E cytokine-induced death, ATP luminescence, 48 h; percent of positive-control rescue, neutral wells zero;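 active = all replicates at 75% or more, or half of them and the mean; inconclusive = half reach 75% but not the mean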;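 note: 0% = cytokine-treated negative control wells and 100% = positive control rescue; higher means more ATP so stronger rescue from cytokine killing; wells of about 40 µL received 100 nL stock; the first replicate is given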
Beta2AR agonist = activates human beta-2 adrenergic receptor causing internalization; P07550; Am2.2-beta2AR cells, FAP receptor internalization, flow cytometry; reference of the scale not given here; response, % (concentration not given with the values); 340,000 compounds, 0.43% hits;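 active = response above a set limit, near 3 SD of response in nonfluorescent compounds, cut at about 42% in these data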;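 note: stock transfer was 100 nL into about 11 µL; a reference agonist was the positive control; negative values mostly stem from fluorescent compounds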
Target sequence (P07550 whole entry, looked up): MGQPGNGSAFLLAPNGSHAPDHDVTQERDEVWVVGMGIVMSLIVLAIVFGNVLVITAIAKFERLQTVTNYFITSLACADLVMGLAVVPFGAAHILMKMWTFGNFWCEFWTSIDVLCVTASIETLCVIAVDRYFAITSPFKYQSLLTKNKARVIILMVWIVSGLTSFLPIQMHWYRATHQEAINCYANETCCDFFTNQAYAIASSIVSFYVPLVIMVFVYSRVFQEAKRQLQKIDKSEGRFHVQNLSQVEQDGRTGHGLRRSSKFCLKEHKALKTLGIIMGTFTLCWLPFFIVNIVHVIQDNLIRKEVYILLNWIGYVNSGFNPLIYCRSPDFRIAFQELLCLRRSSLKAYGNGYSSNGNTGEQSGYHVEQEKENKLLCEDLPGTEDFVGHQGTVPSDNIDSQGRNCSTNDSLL
UCH37 inh = inhibitors of human deubiquitinating enzyme UCH37; Q9Y5K5; purified proteasome/UCH37, Ub-AMC cleavage fluorescence; inhibition, % (test concentration not listed); 330,000 compounds, 0.33% hits; AID 588478;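 active = mean of two replicates above 20%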;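 note: 0% = compound-free wells with enzyme and 100% = wells lacking proteasome; stock transfer was 100 nL into about 20 µL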
Target sequence (Q9Y5K5 whole entry, looked up): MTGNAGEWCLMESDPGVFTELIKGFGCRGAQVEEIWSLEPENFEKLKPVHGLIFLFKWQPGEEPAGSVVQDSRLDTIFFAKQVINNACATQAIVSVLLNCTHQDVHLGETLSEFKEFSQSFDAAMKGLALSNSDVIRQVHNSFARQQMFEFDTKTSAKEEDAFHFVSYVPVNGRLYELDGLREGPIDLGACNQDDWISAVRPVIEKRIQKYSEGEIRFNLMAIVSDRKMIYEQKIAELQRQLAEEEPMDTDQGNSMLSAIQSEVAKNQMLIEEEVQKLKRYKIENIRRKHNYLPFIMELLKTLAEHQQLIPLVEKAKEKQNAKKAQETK
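system = Proteasome-associated human UCH37 deubiquitinase | amount = 0.15 nM proteasome as dispensed | medium = pH 7.4 Tris-HCl (50 mM) with ovalbumin, ATP-MgCl2, DTT | incubation = 30 min preincubation with enzyme, 25 min cleavage at room temperature | detection = AMC fluorescence 355/460 nm | read-out basis = percent inhibition | controls = no-proteasome and no-compound wells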
Bfl-1 A1 inh = inhibitors of the anti-apoptotic protein A1, read as caspase activation; MEF A1-2A-BIM cells, Caspase-Glo 3/7 luminescence, 3 h; percent of clofoctol response, vehicle zero; caspase activation, % (no concentration beside the values); 330,000 compounds, 0.066% hits; AID 2462;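 active = over half of replicate activation scores above 10%, or exactly half above 10 with the replicate mean above 10; inconclusive = replicate mean below 10 yet half the replicates above 10; inactive = over half of replicates below 10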;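 note: wells of about 30 µL received 50 nL stock; many hits fall short of the cut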
Calb FLC = affects C. albicans growth with fluconazole. growth inhibition, % (concentration not given with the values). AID 1979. C. albicans CaCi-2 (fluconazole-resistant clinical isolate) + fluconazole, Alamar Blue growth, 48 h. 300,000 compounds, 0.57% hits;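 active = most replicates above 75%; inconclusive = exactly half above 75%; inactive = most below 75%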;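 note: all wells also contain fluconazole at 8 µg/ml as a sub-toxic cotreatment; 0% = median of DMSO wells and 100% = median of geldanamycin control wells; wells of about 8 µL received 7.5 nL stock; the first replicate is given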
RanGTP-Imp inh = disruptors of Ran-importin-beta complex formation – biochemical, FRET, CFP-Ran, YFP-importin-beta, homogeneous, primary screen; 300,000 compounds, 1.1% hits; cell-free CFP-Ran/YFP-importin-beta FRET ratio; inhibition, % (test concentration not listed);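 active = most replicates above 15%; inconclusive = exactly half above 15%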;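 note: 0% = DMSO wells and 100% = Ran loaded with GDP instead of GTP; wells of about 40 µL received 100 nL stock; the first replicate is given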
LANA-H2B inh = blocks KSHV LANA binding to histone H2A/H2B; cell-free LANA-H2A/H2B peptide, fluorescence polarization; Q9QR71; inhibition, % (no concentration beside the values); 320,000 compounds, 0.6% hits; in the data active = inhibition mostly above about 10%, no sharp cut-off; inactive = mostly below about 6.7%;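 note: stock transfer was 7.5 nL into about 10 µL; 0% = median of vehicle wells and 100% = median of positive control wells; one replicate is shown; the record names a cut of 25% in any replicate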
Active calls of the source: *; i = inactive; ? = inconclusive; nt = no result given.

[1] N#Cc1c(-c2ccccc2)cc(-c2ccccc2)[nH]c1=O
[2] O=C(NCC1CCCO1)c1cn(Cc2ccccc2)nc1-c1ccccc1 (stereo unspecified)
[3] c1ccc(Cn2c(Sc3nnnn3-c3ccccc3)nnc2-c2ccccc2)cc1
[4] O=C(CCc1nnc(-c2ccccc2)o1)c1ccc(Cl)cc1
[5] O=C1/C(=C\c2ccsc2)N2CCC1CC2

| Compound | 1 | 2 | 3 | 4 | 5 |
| --- | --- | --- | --- | --- | --- |
| T cruzi repl | -9.0 | nt | 14.7 | -7.5 | -7.4 |
| Beta cell apopt | 5.0 | -0.7 | -6.0 | -3.6 | -5.1 |
| Beta2AR agonist | 1.9 | -12.7 | 5.8 | 0.1 | 1.0 |
| UCH37 inh | i | -0.9 | 2.4 | 0.9 | 4.6 |
| Bfl-1 A1 inh | 0.6 | 0.4 | -1.0 | 0.3 | 1.6 |
| Calb FLC | -6.0 | nt | -31.1 | 12.2 | 1.5 |
| RanGTP-Imp inh | 2.0 | nt | ? | 4.1 | -2.6 |
| LANA-H2B inh | 4.3 | -2.3 | 0.4 | -2.1 | -1.4 |

[6] Cc1ccccc1NC(=O)c1ccc(-n2cncn2)nc1
[7] O=C(NCc1nc2ccccc2[nH]1)C1=C[C@@H](c2ccccc2)C[C@@H](OCCCCO)O1
[8] O=C(NNC(=O)c1ccc[nH]1)Nc1cccc(C(F)(F)F)c1
[9] COc1ccc(CNC(=S)Nc2ccc3nc(N4CCN(C)CC4)cc(C)c3c2)cc1
[10] CCN(CC1CCCO1)C(=O)c1cc(COc2ccc(OC)cc2Cl)on1 (stereo unspecified)

| Compound | 6 | 7 | 8 | 9 | 10 |
| --- | --- | --- | --- | --- | --- |
| T cruzi repl | -20.6 | -0.6 | 2.5 | 36.6 | -10.1 |
| Beta cell apopt | -0.4 | 4.4 | -3.5 | -0.9 | 1.7 |
| Beta2AR agonist | -0.6 | -7.3 | -2.9 | 4.5 | 8.2 |
| UCH37 inh | -0.8 | -0.8 | 1.8 | -6.0 | 1.2 |
| Bfl-1 A1 inh | -0.1 | 0.7 | 0.6 | 0.0 | -2.2 |
| Calb FLC | 34.0 | 10.7 | -4.9 | 36.2 | -8.1 |
| RanGTP-Imp inh | -0.7 | -1.7 | 2.4 | ? | 1.2 |
| LANA-H2B inh | 4.6 | -1.1 | -2.1 | -7.3 | 0.9 |

[11] CC(CNC(=O)Cn1ccc(N)nc1=O)c1ccccc1 (stereo unspecified)
[12] Cc1ccc(C(=O)Nc2ccc3c(c2)OCO3)cc1NC(=O)c1ccco1
[13] COc1ccc(NC(=O)Cn2c(NCC(C)O)nc3ccccc32)cc1Cl (stereo unspecified)
[14] O=C(Cn1nnc(-c2cccs2)n1)NCc1ccco1
[15] C=CCC(C#Cc1ccc(C)cc1)N(CC)CC (stereo unspecified)

| Compound | 11 | 12 | 13 | 14 | 15 |
| --- | --- | --- | --- | --- | --- |
| T cruzi repl | nt | 5.5 | -11.0 | 5.7 | -5.6 |
| Beta cell apopt | -0.8 | 1.8 | -3.3 | -3.2 | -0.8 |
| Beta2AR agonist | -1.5 | 1.1 | 4.2 | -4.6 | 2.2 |
| UCH37 inh | -0.2 | 4.6 | 2.9 | 2.7 | -0.9 |
| Bfl-1 A1 inh | -0.4 | 0.3 | 0.6 | 0.0 | -0.2 |
| Calb FLC | nt | 1.7 | -3.7 | -17.9 | -2.1 |
| RanGTP-Imp inh | nt | -2.8 | -1.5 | 2.3 | 0.0 |
| LANA-H2B inh | -2.0 | -1.9 | 1.3 | -3.3 | 7.8 |

[16] CCCCNC(C(=O)Nc1cccc(S(=O)(=O)N2CCOCC2)c1)c1ccccc1 (stereo unspecified)
[17] Cc1ccc2nc(SCn3nnc4ccccc4c3=O)[nH]c2c1
[18] CS(=O)(=O)N1Cc2ccccc2CC1C(=O)OCC(=O)NCc1ccccc1 (stereo unspecified)
[19] O=C(CCS(=O)(=O)c1ccc(Cl)cc1)NCCC1=CCCCC1
[20] Cc1cc(C)cc(C(=O)NC(CC(N)=O)c2ccc(NCCN3CCCC3)c([N+](=O)[O-])c2)c1 (stereo unspecified)

| Compound | 16 | 17 | 18 | 19 | 20 |
| --- | --- | --- | --- | --- | --- |
| T cruzi repl | 18.1 | -0.6 | nt | -4.9 | -15.0 |
| Beta cell apopt | 6.7 | -3.0 | -3.5 | -1.3 | 0.2 |
| Beta2AR agonist | 4.3 | -3.2 | 2.7 | -11.2 | 0.4 |
| UCH37 inh | -0.7 | 3.9 | 1.7 | 0.4 | 2.9 |
| Bfl-1 A1 inh | 0.1 | -3.7 | 0.0 | -0.3 | 1.1 |
| Calb FLC | -6.2 | -0.4 | nt | -13.3 | -6.5 |
| RanGTP-Imp inh | 0.1 | -2.1 | nt | -0.2 | -2.2 |
| LANA-H2B inh | -1.4 | -4.6 | -6.2 | 2.8 | -0.4 |

[21] O=C(Cn1nc(Cl)nc1Cl)Nc1ccccc1
[22] CN1C(=O)/C(=C\c2cccc(OCc3ccccc3)c2)SC1=S
[23] O=S(=O)(NCC(c1cccnc1)N1CCN(c2ccc(F)cc2)CC1)c1ccc(F)cc1 (stereo unspecified)
[24] CC(=O)Nc1ccccc1OCC(=O)NCCc1ccc(Cl)cc1Cl
[25] CCCn1c(=O)c(C(=O)Nc2ccccc2C(=O)OC)c(O)c2ccccc21

| Compound | 21 | 22 | 23 | 24 | 25 |
| --- | --- | --- | --- | --- | --- |
| T cruzi repl | 1.0 | -3.9 | 40.5 | 12.0 | 6.0 |
| Beta cell apopt | -3.4 | nt | -1.0 | 3.0 | -2.8 |
| Beta2AR agonist | 0.9 | 0.1 | 12.6 | 5.9 | 4.6 |
| UCH37 inh | 1.3 | 5.3 | 1.7 | -1.0 | 1.8 |
| Bfl-1 A1 inh | 2.6 | nt | 0.7 | 0.0 | 0.3 |
| Calb FLC | -7.1 | -0.9 | 0.1 | 3.7 | -23.5 |
| RanGTP-Imp inh | 3.5 | 5.7 | -3.9 | -4.0 | -4.7 |
| LANA-H2B inh | -2.5 | nt | 5.2 | -6.5 | -1.3 |

Single records, as listed above.
Listed for CC(=O)Nc1ccccc1OCC(=O)NCCc1ccc(Cl)cc1Cl : T cruzi repl: 12.0; Beta cell apopt: 3.0; Beta2AR agonist: 5.9; UCH37 inh: -1.0; Bfl-1 A1 inh: 0.0; Calb FLC: 3.7; RanGTP-Imp inh: -4.0; LANA-H2B inh: -6.5
Listed for O=C1/C(=C\c2ccsc2)N2CCC1CC2 : T cruzi repl: -7.4; Beta cell apopt: -5.1; Beta2AR agonist: 1.0; UCH37 inh: 4.6; Bfl-1 A1 inh: 1.6; Calb FLC: 1.5; RanGTP-Imp inh: -2.6; LANA-H2B inh: -1.4
Listed for O=C(NCC1CCCO1)c1cn(Cc2ccccc2)nc1-c1ccccc1 (stereo unspecified) : T cruzi repl: nt; Beta cell apopt: -0.7; Beta2AR agonist: -12.7; UCH37 inh: -0.9; Bfl-1 A1 inh: 0.4; Calb FLC: nt; RanGTP-Imp inh: nt; LANA-H2B inh: -2.3

The list continues.
[26] CCN1C(=O)/C(=C\c2ccc(F)cc2)N=C1SCC(=O)NCc1ccco1
[27] O=C(O)CCN1C(=O)c2ccc(Oc3ccc4c(c3)C(=O)N(CCC(=O)O)C4=O)cc2C1=O
[28] Cc1cccc(NC(=O)COc2ccccc2C)n1
[29] Cc1ccc(N2CC(C(=O)Nc3ccc4c(c3)OCCO4)CC2=O)cc1 (stereo unspecified)

| Compound | 26 | 27 | 28 | 29 |
| --- | --- | --- | --- | --- |
| T cruzi repl | 1.0 | -24.3 | -12.4 | -4.8 |
| Beta cell apopt | -11.0 | -3.9 | -10.7 | 3.3 |
| Beta2AR agonist | -7.3 | 5.5 | 5.4 | -1.8 |
| UCH37 inh | 1.6 | 2.5 | 0.2 | 0.4 |
| Bfl-1 A1 inh | -0.1 | 0.7 | -2.2 | 0.6 |
| Calb FLC | 7.7 | -4.8 | -0.7 | 0.2 |
| RanGTP-Imp inh | 1.6 | -0.4 | 5.0 | -3.7 |
| LANA-H2B inh | -1.8 | -4.3 | -2.2 | -2.3 |

Given as labelled records: 2 of the compounds above
[29] Cc1ccc(N2CC(C(=O)Nc3ccc4c(c3)OCCO4)CC2=O)cc1 (stereo unspecified)
  T cruzi repl = -4.8
  Beta cell apopt = 3.3
  Beta2AR agonist = -1.8
  UCH37 inh = 0.4
  Bfl-1 A1 inh = 0.6
  Calb FLC = 0.2
  RanGTP-Imp inh = -3.7
  LANA-H2B inh = -2.3
[28] Cc1cccc(NC(=O)COc2ccccc2C)n1
  T cruzi repl = -12.4
  Beta cell apopt = -10.7
  Beta2AR agonist = 5.4
  UCH37 inh = 0.2
  Bfl-1 A1 inh = -2.2
  Calb FLC = -0.7
  RanGTP-Imp inh = 5.0
  LANA-H2B inh = -2.2
